Screening results as filed in PubChem BioAssay.
NOMO-1 viab – STK33 inhibitor candidate reducing NOMO-1 cell viability; AID 2330; inhibition, % (no concentration beside the values); 37,000 compounds, 7.5% hits; NOMO-1 AML viability, CellTiter-Glo luminescence, 72 h;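 active = most replicates above 80%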;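 also: wells of about 30 µL received 25 nL stock; 0% = median of vehicle wells and 100% = reference inhibitor level; the first replicate is given; inactives centre near 10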
* hit, by the source's call. This is a subset; count on the stated rates, not on these rows.

The first three entries, to show the layout:
SMILES	NOMO-1 viab
CNC[C@@H]1Oc2ccc(NC(=O)Cc3cn(C)c4ccccc34)cc2C(=O)N([C@@H](C)CO)C[C@H]1C	5.2
Nc1cc(=O)nc(SCC(=O)N2c3ccccc3Sc3ccccc32)n1-c1ccccc1	-10.3
CC(=O)c1ccc(NC(=O)CSc2nc(N)cc(=O)[nH]2)cc1	-9.4

The whole of this part, from the first entry:
SMILES	NOMO-1 viab
CNC[C@@H]1Oc2ccc(NC(=O)Cc3cn(C)c4ccccc34)cc2C(=O)N([C@@H](C)CO)C[C@H]1C	5.2
Nc1cc(=O)nc(SCC(=O)N2c3ccccc3Sc3ccccc32)n1-c1ccccc1	-10.3
CC(=O)c1ccc(NC(=O)CSc2nc(N)cc(=O)[nH]2)cc1	-9.4
COc1cc(C)c(Cl)c(C)c1S(=O)(=O)NCc1cccnc1	14.3
Cc1cc(C)cc(COc2ccc3c(C)c(CCC(=O)O)c(=O)oc3c2C)c1	-1.9
C[C@H]1CN([C@@H](C)CO)C(=O)Cc2cc(NC(=O)CCCCCC(=O)Nc3ccccc3N)ccc2O[C@@H]1CN(C)Cc1ccc(-c2ccccc2)cc1	140.4*
C[C@H](CO)N1C[C@H](C)[C@H](CN(C)Cc2ccc(C(F)(F)F)cc2)Oc2ccc(NC(=O)CCCN(C)C)cc2C1=O	10.3
Cc1cccc(-c2nnc(SCc3nc4ccccc4c(=O)[nH]3)n2-c2ccccc2)c1	19.9
C[C@H]1CN([C@@H](C)CO)C(=O)Cc2cc(NC(=O)NC3CCCCC3)ccc2O[C@@H]1CN(C)Cc1ccc(C(=O)O)cc1	8.9
O=C(Nc1ccc(I)cc1C(=O)NCc1ccco1)c1cccnc1	12.7
C[C@H]1CN([C@@H](C)CO)C(=O)c2cc(NS(=O)(=O)c3ccccc3)ccc2O[C@H]1CN(C)C(=O)Nc1cccc2ccccc12	2.5
Cc1ccc(-n2c(SCC(=O)Nc3sc4c(c3C#N)CCCC4)nnc2-c2ccccc2)cc1	-4.2
O=C(O)CCSc1nnc(-c2cccnc2)n1-c1ccccc1	0.6
COc1cccc(NC(=O)CSc2nc3ccccc3c(=O)n2-c2cccc(C(F)(F)F)c2)c1	50.0
C[C@H]1CN([C@@H](C)CO)C(=O)c2cccc(NC(=O)C3CCOCC3)c2O[C@H]1CN(C)Cc1ccc(C(=O)Nc2ccccc2N)cc1	55.7
O=C(NCCCn1ccnc1)C1CC(c2ccccc2Cl)=NO1 (configuration not stated)	-5.8
CNC[C@H]1Oc2c(NC(=O)Nc3ccc(OC)cc3)cccc2C(=O)N([C@@H](C)CO)C[C@H]1C	14.8
COc1ccc(S(=O)(=O)N(C)C[C@@H]2Oc3ccc(NC(=O)Nc4c(C)noc4C)cc3C(=O)N([C@H](C)CO)C[C@H]2C)cc1	-4.4
CCOC(=O)N1N=C(C)CC1(O)c1cccnc1 (configuration not stated)	3.0
Cc1c(Br)c([N+](=O)[O-])nn1C(C)C(=O)N1CCCc2ccccc21 (configuration not stated)	29.9
COC(=O)c1ccccc1NC(=O)CSc1nc2cc(Cl)ccc2s1	9.5
C[C@@H]1CN([C@H](C)CO)C(=O)Cc2cc(NS(=O)(=O)c3ccc(Cl)cc3)ccc2O[C@H]1CN(C)C(=O)Nc1ccc2c(c1)OCO2	8.6
Cc1noc(C)c1NC(=O)N(C)C[C@@H]1Oc2c(NS(=O)(=O)c3ccc(F)cc3)cccc2C(=O)N([C@@H](C)CO)C[C@H]1C	14.7
O=C(Nc1ccccc1C(=O)OCc1cccc([N+](=O)[O-])c1)c1ccccc1	6.6
CC(C)(C)C1CC=C2[C@H](C1)[C@@H](c1ccsc1)C(C#N)=C(N)C2(C#N)C#N (some centres not stated)	22.6

(list continues)
SMILES	NOMO-1 viab
C[C@@H]1CN([C@@H](C)CO)C(=O)c2cc(NC(=O)Nc3ccc4c(c3)OCO4)ccc2O[C@@H]1CN(C)CC1CCCCC1	4.1
CC(C)N(Cc1nc(-c2ccccc2)no1)C(=O)c1ccc([N+](=O)[O-])cc1	15.7
COc1ccc(S(=O)(=O)Nc2cccc3c2O[C@H](CN(C)S(=O)(=O)c2ccccc2)[C@H](C)CN([C@H](C)CO)C3=O)cc1	-7.6
C[C@@H]1CCCCO[C@@H](CN(C)Cc2ccccc2)[C@@H](C)CN([C@H](C)CO)C(=O)c2cc(NC(=O)CCCCCC(=O)Nc3ccccc3N)ccc2O1	54.4
Cc1ccc(S(=O)(=O)N(C)C[C@H]2Oc3ccc(NC(=O)CCC(F)(F)F)cc3C(=O)N([C@@H](C)CO)C[C@H]2C)cc1	-11.3
CCn1c(SCC(=O)Nc2cc(Cl)c(Cl)cc2Cl)nnc1-c1cc(Br)ccc1O	37.1
C[C@@H]1CCCCO[C@H](CN(C)C(=O)Nc2cccc3ccccc23)[C@@H](C)CN([C@H](C)CO)C(=O)c2cc(NC(=O)c3ccccc3)ccc2O1	60.1
Cc1nn(C(=O)c2ccco2)c(C)c1CN1C(=O)c2ccccc2C1=O	-0.2
C[C@H]1CN([C@@H](C)CO)C(=O)c2cc(NC(=O)Nc3cccc4ccccc34)ccc2O[C@H]1CN(C)S(=O)(=O)c1cn(C)cn1	-6.1
C[C@H](CO)N1C[C@H](C)[C@@H](CN(C)C(=O)Nc2ccc3c(c2)OCO3)Oc2ccc(NC(=O)Nc3ccc4c(c3)OCO4)cc2C1=O	-7.1
C[C@H]1CN([C@@H](C)CO)C(=O)Cc2cc(NC(=O)Nc3ccc(C(F)(F)F)cc3)ccc2O[C@H]1CN(C)Cc1ccc(C(=O)O)cc1	12.6
Cc1cc(Cl)c(S(=O)(=O)N2CCN(c3ccc(F)cc3)CC2)cc1OCC(N)=O	15.1
C[C@@H]1CN([C@H](C)CO)C(=O)c2cccc(NC(=O)c3cnccn3)c2O[C@@H]1CN(C)CC1CCCCC1	-12.5
CCn1c(SCC(=O)Nc2ccc(Cl)c(Cl)c2)nnc1-c1ccc(Br)cc1	-1.8
Cn1c(=O)c2c(nc(NCCO)n2CCc2ccccc2)n(C)c1=O	36.5
C[C@H]1CN([C@@H](C)CO)C(=O)c2cc(NC(=O)Cc3ccccc3)ccc2O[C@@H]1CN(C)CC1CCCCC1	-5.7
O=C(NCc1ccco1)c1ccc2c(c1)C(=O)N(Cc1cccnc1)C2=O	20.0
Cc1ccc(S(=O)(=O)Nc2ccc3c(c2)C(=O)N([C@H](C)CO)C[C@@H](C)[C@@H](CN(C)S(C)(=O)=O)O3)cc1	6.0
Cc1ccnc(NS(=O)(=O)c2ccc(NC(=O)C34CCC5CC(CC(C5)C3)C4)cc2)n1	19.3
COC1=CC(=O)CC(C)C12Oc1cc(OC)cc(OC)c1C2=O (configuration not stated)	59.2
N#C/C(=C\Nc1cc(C(F)(F)F)cc(C(F)(F)F)c1)S(=O)(=O)c1ccccn1	19.2
COc1ccc(NC(=O)N(C)C[C@@H]2Oc3ccc(NS(=O)(=O)c4cccs4)cc3C(=O)N([C@@H](C)CO)C[C@@H]2C)cc1	25.7
N#CC1(NC(=O)c2cc3ccccc3oc2=O)CCCCC1	45.6
CNC[C@@H]1Oc2ccc(NC(=O)Nc3cccc4ccccc34)cc2CC(=O)N([C@H](C)CO)C[C@@H]1C	1.9
Cc1nnc(SCC(=O)Nc2ccc([N+](=O)[O-])cc2)s1	27.2

Next section.
SMILES	NOMO-1 viab
CC(C)[C@@H]1CC[C@@]2(C)CCC[C@@](C)(O)[C@@H]2[C@H]1OC(=O)/C=C/c1ccccc1	53.6
Cc1noc(C)c1NC(=O)N(C)C[C@H]1OCCCC[C@@H](C)Oc2ccc(NC(=O)Nc3cccc4ccccc34)cc2C(=O)N([C@H](C)CO)C[C@@H]1C	-9.7
CCn1c(=O)c(C(=O)NCCO)c(O)c2ccccc21	-12.4
COc1ccc(CN2C(=O)C(O)(CC(=O)c3ccco3)c3ccccc32)cc1OC (configuration not stated)	118.2*
O=C(CSc1nnc(-c2cccc(Br)c2)n1-c1ccccc1)Nc1ccc(Cl)cc1	-4.0
CC(C)(C)c1ccc(SCC(O)CSc2nc3c(cc2C#N)CCCC3)cc1 (configuration not stated)	24.6
COc1ccc(S(=O)(=O)Nc2ccc3c(c2)CC(=O)N([C@H](C)CO)C[C@H](C)[C@H](CN(C)Cc2ccc(C(F)(F)F)cc2)O3)cc1	125.5*
C[C@H]1CN([C@@H](C)CO)C(=O)Cc2cc(NS(=O)(=O)c3cccs3)ccc2O[C@@H]1CN(C)Cc1ccccc1	55.5
Cc1ccc(OCCCn2cnc3ccccc3c2=O)c([N+](=O)[O-])c1	37.5
CC(C)(C)c1ccc(N2C(=O)CCC2=O)cc1	19.1
C[C@@H]1CCCCO[C@H](CN(C)Cc2ccc3c(c2)OCO3)[C@@H](C)CN([C@H](C)CO)C(=O)c2cc(NC(=O)CCCN(C)C)ccc2O1	-15.8
Cc1noc(C)c1S(=O)(=O)Nc1ccc2c(c1)C(=O)N([C@H](C)CO)C[C@H](C)[C@H](CN(C)Cc1ccc3c(c1)OCO3)O2	7.6
CC(C)NC(=O)Nc1ccc2c(c1)CC(=O)N([C@@H](C)CO)C[C@@H](C)[C@@H](CN(C)Cc1ccccc1)O2	-14.5
C[C@@H]1CN([C@@H](C)CO)C(=O)Cc2cc(NC(=O)Cc3ccccc3)ccc2O[C@@H]1CN(C)Cc1ccc(C(=O)Nc2ccccc2N)cc1	95.8*
COc1ccc(OC)c(CNCc2ccccc2OC)c1	16.5
COc1ccc(S(=O)(=O)N(C)C[C@@H]2Oc3ccc(NC(=O)Nc4ccccc4)cc3CC(=O)N([C@H](C)CO)C[C@H]2C)cc1	14.9
C[C@@H]1CCCCO[C@H](CN(C)C(=O)NC2CCCCC2)[C@@H](C)CN([C@H](C)CO)C(=O)c2cc(NC(=O)Nc3ccc4c(c3)OCO4)ccc2O1	-0.9
C[C@@H]1CCCCO[C@H](CN(C)C(=O)Nc2ccc(C(F)(F)F)cc2)[C@@H](C)CN([C@H](C)CO)C(=O)c2cc(NC(=O)c3ccncc3)ccc2O1	35.4
C[C@H]1CN([C@@H](C)CO)C(=O)Cc2cc(NC(=O)NC3CCCCC3)ccc2O[C@@H]1CN(C)C(=O)Nc1ccc(C(F)(F)F)cc1	6.5
C[C@@H]1CCCCO[C@@H](CN(C)S(=O)(=O)c2cn(C)cn2)[C@@H](C)CN([C@H](C)CO)C(=O)c2cc(NC(=O)NC3CCCCC3)ccc2O1	-4.5
C[C@H](CO)N1C[C@H](C)[C@H](CN(C)C(=O)Nc2ccc(F)cc2)Oc2ccc(NC(=O)Nc3ccc(C(F)(F)F)cc3)cc2C1=O	111.5*
COc1ccc(NC(=O)CSc2nc(N)cc(=O)[nH]2)cc1	4.5
C[C@@H]1CCCCO[C@@H](CN(C)C(=O)NC2CCCCC2)[C@@H](C)CN([C@H](C)CO)C(=O)c2cc(NC(=O)Nc3ccc(C(F)(F)F)cc3)ccc2O1	99.5*
COc1cc(C)c(C(=O)O[C@H]2[C@@H](OC(C)=O)[C@H](n3ccc(=O)[nH]c3=O)O[C@@H]2CO)c(OC)c1	10.2
C[C@@H]1CN([C@@H](C)CO)C(=O)Cc2cc(NC(=O)Cc3ccccc3)ccc2O[C@@H]1CN(C)CC1CC1	2.1

(cont.)
SMILES	NOMO-1 viab
COc1cccc(C(=O)NC2(C(F)(F)F)C(=O)N(CC3CCCO3)C3=C2C(=O)CC(C)(C)C3)c1 (configuration not stated)	11.0
Nc1ccccc1CC(c1c[nH]c2ccccc12)c1c[nH]c2ccccc12	64.3
CC(C)NC(=O)Nc1ccc2c(c1)C(=O)N([C@H](C)CO)C[C@@H](C)[C@@H](CN(C)S(=O)(=O)c1ccc(Cl)cc1)O2	5.9
C[C@H]1CN([C@@H](C)CO)C(=O)c2cc(NC(=O)Nc3ccc4c(c3)OCO4)ccc2O[C@H]1CN(C)S(=O)(=O)c1ccccc1	40.9
O=C(CSc1nc2sc3c(c2c(=O)n1-c1ccccc1)CCC3)N1CCC(c2noc3ccc(F)cc23)CC1	5.2
COc1ccc(NC(=O)Nc2ccc3c(c2)C(=O)N([C@H](C)CO)C[C@H](C)[C@@H](CN(C)S(=O)(=O)c2c(C)noc2C)OCCCC[C@@H](C)O3)cc1	22.1
COc1ccc([N+](=O)[O-])cc1NC(=O)CCN1CCN(CCO)CC1	-15.0
COc1ccc(NC(=O)Nc2ccc3c(c2)CC(=O)N([C@@H](C)CO)C[C@@H](C)[C@@H](CN(C)C(=O)Nc2c(C)noc2C)O3)cc1	7.2
CC(C)OC(=O)C1=c2s/c(=C\c3cccnc3)c(=O)n2C(N)=C(C#N)C1c1cccnc1 (configuration not stated)	22.4
COc1cc(OC)c(C2=NOC(C(=O)Nc3sc4c(c3C#N)CCC4)C2)cc1Cl (configuration not stated)	14.2
Cc1ccc(S(=O)(=O)N(C)C[C@@H]2Oc3ccc(NC(=O)Cc4cn(C)c5ccccc45)cc3C(=O)N([C@@H](C)CO)C[C@H]2C)cc1	11.6
Cc1noc(C)c1NC(=O)Nc1ccc2c(c1)CC(=O)N([C@@H](C)CO)C[C@@H](C)[C@@H](CN(C)C)O2	30.7
C[C@@H]1CN([C@@H](C)CO)C(=O)Cc2cc(NC(=O)C3CC3)ccc2O[C@@H]1CN(C)S(=O)(=O)c1ccc(F)cc1	-1.9
Cc1noc(C)c1S(=O)(=O)N(C)C[C@H]1Oc2ccc(NS(=O)(=O)c3cn(C)cn3)cc2CC(=O)N([C@@H](C)CO)C[C@H]1C	2.6

Of the compounds above, these have a cyano group.
SMILES	NOMO-1 viab
Cc1ccc(-n2c(SCC(=O)Nc3sc4c(c3C#N)CCCC4)nnc2-c2ccccc2)cc1	-4.2
CC(C)(C)C1CC=C2[C@H](C1)[C@@H](c1ccsc1)C(C#N)=C(N)C2(C#N)C#N (some centres not stated)	22.6
N#C/C(=C\Nc1cc(C(F)(F)F)cc(C(F)(F)F)c1)S(=O)(=O)c1ccccn1	19.2
N#CC1(NC(=O)c2cc3ccccc3oc2=O)CCCCC1	45.6
CC(C)(C)c1ccc(SCC(O)CSc2nc3c(cc2C#N)CCCC3)cc1 (configuration not stated)	24.6
CC(C)OC(=O)C1=c2s/c(=C\c3cccnc3)c(=O)n2C(N)=C(C#N)C1c1cccnc1 (configuration not stated)	22.4
COc1cc(OC)c(C2=NOC(C(=O)Nc3sc4c(c3C#N)CCC4)C2)cc1Cl (configuration not stated)	14.2
